# miR-21 FLuc: miR-21 reporter, rising signal | HeLa miR-21 FLuc reporter, luciferase, 48 h | 340,000 tested, under 10 active | Potency, µM (doses to about 38.3 µM), inactives show at the highest dose reporter change, positive = more light; active = well fitted rising curve with a large enough effect; inconclusive = small, poorly fitted or top-dose-only effect; inactive = no such curve, though single readings can be large or run the other way;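 further: % of control where 0% means no effect; miR-21 action dims this reporter so a rising signal means less miR-21 action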
#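 HeLa miR-21-FLuc reporter line, endogenous miR-21; 2000 cells/well in DMEM/10% FBS; compound titration up to ~40uM final, 48 h, 37 degree Celsius; luciferase detection reagent, 15 min lysis, CCD luminescence.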
# Active calls of the source: *; u = inconclusive. An excerpt, so the mix of outcomes need not match the whole.
SMILES,miR-21 FLuc
Oc1c(C(c2ccc(F)cc2)N2CCN(Cc3ccccc3)CC2)sc2nc(-c3ccco3)nn12 (centres undefined),-1%
COc1ccc(CNC(=O)CCc2c(C)c3cc4c(C)coc4c(C)c3oc2=O)cc1OC,-6%
COCCCNC(=O)c1c(NC(=O)Cc2coc3c(C)c(C)ccc23)sc2c1CCCC2,19%
COc1ccc(CCNC(=O)CCc2c(C)nc3c(-c4ccc(F)cc4)c(C)nn3c2C)cc1OC,-1%
COc1cc(-c2noc(-c3cc4cc(F)ccc4oc3=O)n2)cc(OC)c1OC,0%
Cc1cc(C)cc(Oc2nc3ccccn3c(=O)c2/C=C(\C#N)c2nc3ccccc3s2)c1,-2%
CC(C)Cn1cc(NC(=O)N2CCN(c3cccc(Cl)c3)CC2)c2ccccc2c1=O,0%
Cc1nn(C)c2c1c(-c1ccccc1)cc(=O)n2Cc1c(F)cccc1Cl,-9%
O=C(Cn1c(=O)n(-c2ccccc2)c(=O)c2ccc(C(=O)NCc3ccc4c(c3)OCO4)cc21)Nc1ccc(F)cc1,-5%
CCSc1ncc(Cl)c(C(=O)Nc2sc3c(c2C(=O)NC)CCCC3)n1,-1%
CCN1CCOC(=O)C1CC(=O)Nc1ccc(C(C)=O)cc1 (centres undefined),-44%
CCOC(=O)CSc1nc2ccc(NC(=O)c3cccc(F)c3)cc2s1,-11%
CCC(Sc1nnc(-c2ccc(OC)cc2)c(-c2ccc(OC)cc2)n1)C(=O)NC1CCCCC1 (centres undefined),-2%
Cc1ccc2cc(CN(C)C(=O)c3cccc(Cl)c3)c(=O)[nH]c2c1,-13%
Cc1c2cnn(CC(=O)N3CCN(c4ccccc4)CC3)c(=O)c2c(C)n1Cc1ccccc1Cl,-4%
Cc1cc(C)cc(NC(=O)CSc2nc(-c3cccc(Cl)c3)nc3c2Cc2c(CO)cnc(C)c2O3)c1,-7%
COc1ccc(CCNC(=O)CCc2c(C)nc3c4cccnc4nn3c2C)cc1OC,-1%
Cc1ccc(NC(=O)CCc2nnc3n(C)c(=O)c4sccc4n23)cc1C,-3%
CC(=O)c1cccc(NC(=O)c2nc(-c3ccccc3)n(-c3ccccc3C)n2)c1,-2%
O=C(Nc1ccc(C(F)(F)F)cc1)c1cc(S(=O)(=O)N2CCCc3ccccc32)ccc1F,29%
CCOc1ccc(OCC)c(NC(=O)CN(C)S(=O)(=O)c2ccc3[nH]c(=O)oc3c2)c1,-1%
COc1ccccc1NC(=O)c1cnc(SCC(=O)N2CCCc3ccccc32)n(C)c1=O,0%
CCc1cccc(C)c1NC(=O)c1cc(CN2CCCC2)on1,-2%
CC(=O)c1ccc(N2CCN(S(=O)(=O)c3ccc4[nH]c5c(c4c3)CCCC5)CC2)cc1,21%
Cn1cc(-c2cc3n(n2)CCC(=O)N3CC(=O)O)c2ccccc21,2%

# No new results follow: entries from further up.
SMILES,miR-21 FLuc
CC(=O)c1ccc(N2CCN(S(=O)(=O)c3ccc4[nH]c5c(c4c3)CCCC5)CC2)cc1,21%
Cn1cc(-c2cc3n(n2)CCC(=O)N3CC(=O)O)c2ccccc21,2%

# Additional entries follow.
SMILES,miR-21 FLuc
Cc1ccc(-c2cc(C(=O)NCCc3ccccc3)c3c(-c4ccc(C)cc4)[nH]nc3n2)cc1,-59%
O=C(Nc1ccc2nc(SCC(=O)N3CCc4ccccc43)sc2c1)c1cccc(Cl)c1,-8%
Cc1ccccc1Nc1nnc(-c2ccc(C)c(S(=O)(=O)N3CCOCC3)c2)c2ccccc12,17%
COc1ccc2c(c1)CCc1c(C(=O)Nc3c(C)nn(Cc4ccc(Cl)c(Cl)c4)c3C)noc1-2,-8%
CCCCc1ccc(-n2nc3cc(C)c(NC(=O)c4ccc(C#N)cc4F)cc3n2)cc1,-7%
Cc1cccc(C)c1NC(=O)Cn1c(=O)n(CCCS(=O)(=O)C2CCCCC2)c(=O)c2ccccc21,-2%
COc1ccc(CNC(=O)C2CCN(c3nc4ccc(C)cc4[nH]3)CC2)cc1,-8%
CCc1ccccc1N1C(=O)CN(S(=O)(=O)CC)CC1(C)C(=O)NC1CCCCC1 (centres undefined),-6%
COc1cc(OC)c(NC(=O)c2c(C)oc3nc(C)nc(N4CCOCC4)c23)cc1Cl,1%
Cc1ccccc1NC(=O)Nc1csc2c1CCCC2,-2%
CCN(CC)c1cc2c(cc1F)c(=O)c(S(=O)(=O)c1ccccc1)cn2C,-10%
CCc1ccc(-n2c(=O)c3sc4ccccc4c3n(CC(=O)NCc3ccccc3)c2=O)cc1,4%
Cc1cc(N2CCCCC2)nc2ccc(NC(=O)/C=C/c3ccc(OCCC(C)C)cc3)cc12,0%
CCOc1ccccc1CNC(=O)CCc1c(C)nn(-c2ccc(N3CCCCC3)nn2)c1C,21%
CCCn1c(COc2cccc(C)c2)nc2ccccc21,-17%
O=S(=O)(Nc1nc2n(n1)C(c1ccccc1)C=C(c1ccc(Cl)cc1)N2)c1ccccc1 (centres undefined),-2%
Fc1ccccc1N1CCN(c2ncc3c(n2)CCN(Cc2cc(Br)cs2)C3)CC1,2%
Cc1cc(S(=O)(=O)n2ccnc2C(C)C)cc([N+](=O)[O-])c1C,0%
O=c1oc2c(F)cc(F)cc2cc1S(=O)(=O)c1ccc(F)cc1,-2%
O=C(CCn1cnc2onc(-c3ccc(F)cc3)c2c1=O)Nc1cccc(C(F)(F)F)c1,u
O=C(Cn1ccc2cc(S(=O)(=O)N3CCCCCC3)ccc21)NCc1cccc(Cl)c1,4%
CCn1c(/C(C#N)=C/c2ccccc2Cl)nc2ccccc21,-17%
COC(=O)c1ccc(OC)c(CN2CCCN(Cc3ccc(C)cc3)S2(=O)=O)c1,-3%
CCn1c(=O)sc2cc(NS(=O)(=O)c3ccc(C)cc3)ccc21,9%
COc1ccc(NCc2nnc3n2CCCCC3)c(OC)c1,-1%

# Given with each value named: entries from further up.
> O=C(Nc1ccc2nc(SCC(=O)N3CCc4ccccc43)sc2c1)c1cccc(Cl)c1
  miR-21 FLuc: -8%

> O=c1oc2c(F)cc(F)cc2cc1S(=O)(=O)c1ccc(F)cc1
  miR-21 FLuc: -2%

> Cc1ccccc1Nc1nnc(-c2ccc(C)c(S(=O)(=O)N3CCOCC3)c2)c2ccccc12
  miR-21 FLuc: 17%

> Cc1ccccc1NC(=O)Nc1csc2c1CCCC2
  miR-21 FLuc: -2%

# (next part)
SMILES,miR-21 FLuc
Cc1cccc(CCNC(=O)c2cc3c(=O)n(C)c4ccccc4c3n2C)c1,4%
Cn1nnc2c(N3CCN(c4cccc(C(F)(F)F)c4)CC3)ncnc21,-5%
CCCn1c(CCCNC(=O)c2ccccc2OC)nc2ccccc21,1%
O=C1CC(c2nc3ccccc3n2Cc2c(F)cccc2Cl)CN1c1cccc(C(F)(F)F)c1 (centres undefined),-5%
CCS(=O)(=O)n1nc(-c2ccco2)nc1NCc1ccc(C(C)C)cc1,-52%
CCOC(=O)c1c(NC(=O)CSc2cn(CCNC(=O)c3c(F)cccc3F)c3ccccc23)sc2c1CCCC2,6%
O=C(NCCc1ccc(Cl)cc1)c1ccc(CSCc2ccccc2Cl)o1,14%
Cc1ccc(-c2nc(SCc3ccc(Br)cc3)n3[nH]c(=O)cc3n2)cc1,-12%
COc1ccc(CCNC(=O)C(CC(C)C)N2Cc3ccccc3C2=O)c(OC)c1OC (centres undefined),5%
Cc1ccc2c(C)c(C(=O)N(Cc3ccc(N(C)C)cc3)Cc3ccco3)oc2c1C,-2%
CC(=O)NCCNC(=O)CCCn1c(=O)[nH]c2ccsc2c1=O,4%
Brc1ccc(-c2nc(N3CCN(c4ccccc4)CC3)c3ccccc3n2)cc1,-2%
CC1=C(C(=O)Nc2ccc(C)cc2C)C(c2ccc(Br)cc2)n2ncc(C(=O)Nc3cccc(C)c3)c2N1 (centres undefined),8%
Cc1cc(NC(=O)Cn2c(=O)nc(-c3ccccc3F)c3cc(Cl)ccc32)ccc1Br,8%
O=C(CCC1N=C2c3ccccc3N=C(SCc3cccc(F)c3)N2C1=O)NCc1ccc(F)cc1 (centres undefined),u
CCCS(=O)(=O)N1CC(=O)N(c2ccc(C)cc2)C(C)(C(=O)NC2CCCCCC2)C1 (centres undefined),-10%
CC1CCN(C(=O)CSc2nc3c([nH]c4ccccc43)c(=O)n2-c2ccccc2)CC1,0%
COc1ccc(NC(=O)C2CCN(S(=O)(=O)c3c(C)noc3/C=C/c3ccc(C)cc3)CC2)cc1Cl,3%
COc1ccc2c(c1)c1c(c(=O)n(-c3ccccc3C)c(=O)n1Cc1cccc(C(F)(F)F)c1)n2C,-2%
CCc1ccc(NC(=O)CN2C(=O)CC(c3ccccc3)Sc3ccccc32)cc1 (centres undefined),5%
CCN(CC)CCCNC(=O)Cc1csc2nc(-c3ccc(Cl)cc3)cn12,0%
CCc1ccc(NCc2cc3ccc(OC)cc3n(CC(=O)Nc3ccc(C)c(Cl)c3)c2=O)cc1,3%
CSc1nn(CC(=O)Nc2ccc(C)cc2C)c(N)c1S(=O)(=O)c1ccc(Cl)cc1,24%
COc1ccccc1NC(=O)c1ccc2[nH]c(C)cc(=O)c2c1,-6%
CCOc1ccccc1NC(=O)Cn1cc(C(=O)c2ccc(Cl)cc2)c(=O)c2ccc(C)nc21,-2%

# Pulled by compound from the list above:
SMILES,miR-21 FLuc
COc1ccc(NC(=O)C2CCN(S(=O)(=O)c3c(C)noc3/C=C/c3ccc(C)cc3)CC2)cc1Cl,3%
Cn1nnc2c(N3CCN(c4cccc(C(F)(F)F)c4)CC3)ncnc21,-5%
CC(=O)NCCNC(=O)CCCn1c(=O)[nH]c2ccsc2c1=O,4%
O=C(NCCc1ccc(Cl)cc1)c1ccc(CSCc2ccccc2Cl)o1,14%
Cc1cccc(CCNC(=O)c2cc3c(=O)n(C)c4ccccc4c3n2C)c1,4%
CCc1ccc(NCc2cc3ccc(OC)cc3n(CC(=O)Nc3ccc(C)c(Cl)c3)c2=O)cc1,3%

# Further results follow:
SMILES,miR-21 FLuc
Cc1ccc(NC(=O)Cn2c(=O)n(CC3CCC(C(=O)NC(C)C)CC3)c(=O)c3sccc32)cc1 (centres undefined),-1%
CCn1nc(C)c(CCN(C)C(=O)Nc2cc(Cl)ccc2C)c1C,-10%
CCOC(=O)c1c(-c2ccc(C)cc2)csc1NC(=O)c1ccc(C(C)(C)C)cc1,3%
Cc1cc(C)c2c(=O)cc(C(=O)Nc3ccccc3Cl)oc2c1,-4%
O=C(COCc1cc(-c2cccs2)on1)NCc1ccc(Cl)cc1,-2%
COc1ccc(NC(=O)CSc2cn(CC(=O)N3CCCCC3)c3ccccc23)c(OC)c1,7%
CCCc1nn2c(=O)cc(COC(=O)c3ccc(NC(=O)COc4ccccc4F)cc3)nc2s1,-3%
CCCNC(=O)C1CCN(c2ncnc3c2nc2n3CCCCC2)CC1,0%
CCC(=O)N1CCc2cc(S(=O)(=O)NCCC(=O)NCc3ccc(OC)cc3)ccc21,-4%
CCN(CC)C(=O)Cn1nnc2sc(-c3ccccc3)cc2c1=O,-19%
COc1ccc(-n2c(=O)c3c(c4cc(OC)ccc4n3C)n(CC(=O)NCC3CCCO3)c2=O)cc1 (centres undefined),1%
COc1ccccc1CC(=O)Nc1ccc2nc(N3CCC(C)CC3)cc(C)c2c1,1%
Cc1ccc(-c2nn(CC(=O)NCc3ccccc3)c3c2cnc2ccc(F)cc23)cc1C,-1%
CC1=C(C(=O)Nc2cc(Cl)ccc2C)C2(CCCCC2)OC1=O,2%
Cc1cc(=O)oc2cc(OCC(=O)Nc3ccc(O)c(C(=O)O)c3)ccc12,2%
O=C(CSc1nccn1Cc1ccc2c(c1)OCO2)Nc1ccccc1F,-15%
CNc1ccc(-c2nc(-c3ccccn3)no2)cc1[N+](=O)[O-],3%
CCN(c1ccccc1)S(=O)(=O)c1nnc(NC(=O)c2ccccc2)s1,-42%
Cc1ccc(C)c(N2CCN(C(=O)c3ccc4[nH]c(C)c(C)c4c3)CC2)c1,18%
Cc1ccc(Cc2nc3ccccc3nc2SCC(=O)N2CCN(c3ccccc3)CC2)cc1,-2%
O=C(CCCCn1c(=O)c2ccccc2n(Cc2ccc(F)cc2Cl)c1=O)NCCc1ccc(Cl)cc1,-5%
Clc1cccc(-n2ncc3c(N4CCCCC4)ncnc32)c1,-18%
CCc1ccc2c(c1)c(=O)c(S(=O)(=O)c1ccc(F)cc1)cn2CC(=O)Nc1ccc(C)cc1C,-2%
O=C(NCc1ccccc1)c1cc2ccc3cccnc3c2[nH]1,-35%
CCOC(=O)c1ccc(NC(=O)CSc2nc3cc4ccccc4cc3[nH]2)cc1,-18%

# The list continues:
SMILES,miR-21 FLuc
CCOC(=O)c1c(C)[nH]c(C)c1S(=O)(=O)N(C)CC(=O)Nc1cc(Cl)ccc1OC,-2%
O=c1c2cc3c(nc2ncn1Cc1ccccc1F)CCCC3,5%
Cn1cc(S(=O)(=O)N2CCCCC2)cc1C(=O)N1CCN(c2ccc(F)cc2)CC1,3%
COc1ccc(NC(=O)c2sc3nc4n(c(=O)c3c2C)CCC4)cc1Cl,-22%
O=C(NCCc1ccccc1)C1CCN(c2nc3ccccc3nc2C(F)(F)F)CC1,11%
Cc1c(C(=O)N(C)C)sc2c1c(=O)n(-c1ccc(Cl)c(Cl)c1)c(=O)n2CC(=O)C(C)(C)C,-3%
Cc1c(C(=O)N(Cc2ccccc2F)C2CCS(=O)(=O)C2)oc2ccccc12 (centres undefined),-9%
COc1ccc(NC(=O)c2c(NCc3ccc(C)o3)sc3c2CCC(C)C3)cc1 (centres undefined),-2%
COc1ccc(C2CC(=O)c3c([nH]c(C(=O)OC4CCCC4)c3C)C2)cc1OC (centres undefined),0%
COc1cc(C2c3c(-c4cc(C)ccc4O)n[nH]c3C(=O)N2Cc2cccnc2)cc(OC)c1OC (centres undefined),-29%
Cc1cc(C)c2c(CC(=O)Nc3ccc(S(=O)(=O)N4CCCC(C)C4)cc3)coc2c1 (centres undefined),17%
O=C(CSc1ncc2c(n1)-c1cc(Cl)ccc1N(Cc1ccccc1)S2(=O)=O)Nc1ccc(F)cc1F,18%
